From PubChem
T cruzi inh = inhibitors of intracellular T. cruzi growth, primary screen, luminescence, NIH3T3 host cells. 1.4% of 300,000 active. T. cruzi beta-gal in NIH3T3, 90 h. inhibition, % (concentration not given with the values);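 active = mean inhibition across valid replicates above about 55%, limit read from the data; inconclusive = mean below that limit but half or more replicates reach it; inactive = mean below it, under half of replicates reach it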;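 note: signal also drops with host cell toxicity which is not excluded here; 0% = plate median of DMSO wells and 100% = zero luminescence signal; higher percent means less beta-gal luminescence so fewer parasites; stock transfer was 50 nL into about 50 µL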
Ecoli growth = E. coli growth inhibition, primary screen, OD600. Escherichia coli growth, 23 h; hits give low values. OD600 absorbance (no concentration beside the values). 0.21% of 330,000 active;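 active = OD600 absorbance below the run mean of sample wells minus 3.6 SD, in any replicate, cut at about 0.56 in these data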;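 note: stock transfer was 300 nL into about 60 µL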
A1 inh = caspase 3/7 activation in MEF A1-2A-BIM cells, primary screen, A1 inhibitor project, cell-based, luminescence, HTS. AID 2462, 2010. Caspase-Glo 3/7 luminescence, 3 h; percent of clofoctol response, vehicle zero. 0.066% of 330,000 active. caspase activation, % (concentration not given with the values);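 active = over half of replicate activation scores above 10%, or exactly half above 10 with the replicate mean above 10; inconclusive = replicate mean below 10 yet half the replicates above 10; inactive = over half of replicates below 10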;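 note: wells of about 30 µL received 50 nL stock; many hits fall short of the cut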
rRNA inh HTS = reduced GFP signal of wild-type E. coli, primary screen, bacterial rRNA inhibitor project, GFP/RFP fluorescence, OD600, single point | GFP signal change (wild-type ribosome), % (no concentration beside the values) | 1.6% of 350,000 active | E. coli WT GFP vs humanized-ribosome RFP mutants, 24 h; hits give low values; DMSO median 0, no signal -100 | AID 720706, 2013;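 active = significant combined selectivity score with lowered wild-type GFP, culture density cut under 30%, mutant RFP and density less affected; inactive = any of these conditions unmet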; note: one replicate is shown; some compounds called inactive have numbers as strong as hits
Beta apoptosis = inhibitors of cytokine-induced beta cell apoptosis, primary screen, luminescence; INS-1E cytokine-induced death, ATP luminescence, 48 h; percent of positive-control rescue, neutral wells zero; protection from apoptosis, % (test concentration not listed); AID 435005, 2010; 0.8% of 300,000 active;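 active = all replicates at 75% or more, or half of them and the mean; inconclusive = half reach 75% but not the mean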;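 note: 0% = cytokine-treated negative control wells and 100% = positive control rescue; higher means more ATP so stronger rescue from cytokine killing; wells of about 40 µL received 100 nL stock; the first replicate is given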
FGF22 binding = binders of human FGF22 protein, primary screen, FGF22 synaptogenesis inhibitor project, biophysical, thermal shift, single point; 1.5% of 340,000 active; Fibroblast growth factor 22 (Homo sapiens), Q9HCT0; calls only at 9.99 µM; AID 651658, 2012; recombinant FGF22 thermal shift, SYPRO orange fluorescence; percent of sucrose octasulfate shift, DMSO zero;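 active = melting point raised past a set limit in the mean and every replicate; inconclusive = no clear call; three in four hits are not shown here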
Target sequence (Q9HCT0 whole entry, looked up): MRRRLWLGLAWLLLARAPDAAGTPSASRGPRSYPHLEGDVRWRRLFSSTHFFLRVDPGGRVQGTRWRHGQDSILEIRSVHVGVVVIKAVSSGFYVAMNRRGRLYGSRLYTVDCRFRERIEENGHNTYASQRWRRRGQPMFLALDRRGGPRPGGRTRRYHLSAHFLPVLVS
MLL AF4-AF9 inh = inhibitors of AF4 peptide binding to AF9, primary screen, biochemical, AlphaScreen, biotin-AF4 peptide, FLAG-AF9, single point. Protein AF-9 (Homo sapiens), P42568. inhibition, % at 10 µM. 0.47% of 350,000 active;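 active = every replicate reaching a set inhibition limit, whatever the replicate mean, cut at about 25% in these data; inconclusive = mean inhibition reaches that limit but some replicates miss it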;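 note: 0% = plate neutral control median and 100% = total signal loss; the record names both 10 and 1 µM as test concentration; the first replicate is given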
UCH37 inh = inhibitors of human UCH37 deubiquitinase, primary screen, biochemical, Ub-AMC cleavage, fluorescence; Ubiquitin carboxyl-terminal hydrolase isozyme L5 (Homo sapiens), Q9Y5K5; purified proteasome/UCH37; inhibition, % (test concentration not listed); 0.33% of 330,000 active;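 active = mean of two replicates above 20%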;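 note: 0% = compound-free wells with enzyme and 100% = wells lacking proteasome; stock transfer was 100 nL into about 20 µL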
Target sequence (Q9Y5K5 whole entry, looked up): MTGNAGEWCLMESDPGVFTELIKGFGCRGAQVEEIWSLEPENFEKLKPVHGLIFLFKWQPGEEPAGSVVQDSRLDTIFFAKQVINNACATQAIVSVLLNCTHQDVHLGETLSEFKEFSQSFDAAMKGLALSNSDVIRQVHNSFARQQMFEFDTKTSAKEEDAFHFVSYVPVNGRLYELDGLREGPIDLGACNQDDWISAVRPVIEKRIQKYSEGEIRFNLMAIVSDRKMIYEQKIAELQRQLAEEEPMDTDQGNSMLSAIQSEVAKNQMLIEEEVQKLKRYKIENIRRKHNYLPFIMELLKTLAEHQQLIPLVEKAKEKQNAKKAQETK
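assay system = human UCH37 enzyme supplied as purified proteasome complex | amount = proteasome at 0.15 nM in the dispensed enzyme solution | schedule = 30 min compound-proteasome preincubation then 25 min substrate reaction, room temperature | measured by = fluorescence, ex 355 nm, em 460 nm | benchmarks = no-proteasome wells (full inhibition) and compound-free wells (no inhibition)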
rRNA inh HTS OD600 = recorded beside rRNA inh HTS, whose call it bears; OD600 change, %; measured here: OD600 growth;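 optical density of the mix in the first replicate; 0 = DMSO median and -100 = no signal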
rRNA inh HTS RFP = also measured in rRNA inh HTS; calls as there; RFP signal change, %; measured here: RFP humanized mutant strains;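 first replicate; 0 = DMSO median and -100 = no signal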
An asterisk follows results filed as active; i = inactive; ? = inconclusive; / = no result given.

cpd	Structure	T cruzi inh	Ecoli growth	A1 inh	rRNA inh HTS	rRNA inh HTS OD600	rRNA inh HTS RFP	Beta apoptosis	FGF22 binding	MLL AF4-AF9 inh	UCH37 inh
1	C=CCN(C(=O)CN1CCOCC1)c1nc(C)c(-c2ccccc2)s1	7	0.74	1.0	-3	-17	0.5	-4	/	/	0.5
2	COc1ccc(C2=NN(c3ccccc3)C(c3cccs3)C2)cc1 (centres undefined)	31	0.73	-1.5	-2	-11	25	7	i	0.6	i
3	NC(=O)C1(c2ccccc2)CCOCC1	-5	0.69	0.1	/	/	/	-9	/	/	4.1
4	O=[N+]([O-])c1ccc(N2CCN(C(=S)NCc3ccc(Cl)cc3)CC2)cc1	57*	0.73	0.1	-17	-10	1.7	96*	i	34*	7.5
5	C[N+]1(CCCCSc2ccc(O)cc2)CCCCC1	-11	0.68	-0.2	9	8	0.8	-1	i	14	5.5
6	O=S(=O)(N(Cc1ccccc1)[C@@H](CO)Cc1ccccc1)N(Cc1ccccc1)[C@@H](CO)Cc1ccccc1	/	/	2.0	3	-3	-3.2	2	i	-4.2	-1.7
7	O=C(c1cc2cc(Br)ccc2o1)N1CCCCC1	-4	0.74	-5.7	-24	-23	-4.5	-3	/	-3.1	17
8	Cc1ccc(OC/C(=N\O)C(C)(C)C)c([N+](=O)[O-])c1	9	/	-1.3	-59	-77	-23	0	/	3.6	/
9	O=C(CSc1cnc2ccccc2n1)NC1CCCC1	-26	0.69	-0.2	/	/	/	-8	/	/	3.8
10	O=C1N=C(N2CCCCC2)S/C1=C\c1ccccc1F	8	0.64	0.9	3	6	-1.5	0	i	0.4	8.3
11	CCCC1OC2CC3C4CCC5=CC(=O)C=CC5(C)C4C(O)CC3(C)C2(C(=O)O)O1 (centres undefined)	30	0.7	2.9	7	13	-0.3	-21	i	4.4	2.2
12	Cc1oc2cc(O)ccc2c(=O)c1-c1ccccc1	-27	0.67	0.2	0	-4	1.6	3	i	-0.3	-233
13	O=C(O)CC(=O)Nc1cc(Cl)ccc1O	26	0.65	2.7	/	/	/	-11	/	/	-0.2
14	O=C(Nc1cc(C(F)(F)F)ccc1N1CCCC1)C1CCCO1 (centres undefined)	/	0.66	2.9	-24	-31	-7.2	2	i	2.6	5.9
15	Cc1cc(C)cc(NC(=O)CSc2nnc(-c3ccccc3)n2N)c1	-5	0.74	0.8	/	/	/	3	/	/	-0.7
16	COC(=O)c1cn(NC(=O)Cc2cccc(OC)c2)c(=O)c2ccccc12	5	0.63	0.4	2	1	-2.3	-11	i	3.0	-3.2
17	CC1(C)Cc2c(C#N)c(NCC3CCCO3)nc(-c3ccco3)c2CO1 (centres undefined)	-1	0.73	-0.9	/	/	/	-7	/	/	-51
18	CCOc1cc(NC(=S)NCC2CCCO2)c(OCC)cc1NC(=O)c1cccc(C)c1 (centres undefined)	21	0.66	0.4	/	/	/	1	/	/	1.4
19	COc1ccc(C(=O)NCC(=O)OCC(=O)N2CC(C)CC(C)C2)cc1 (centres undefined)	-15	0.69	-0.6	/	/	/	-1	/	/	2.4
20	Cc1cc(C(=O)N(C2CCCCC2)C2CCCCC2)no1	-16	0.64	0.5	/	/	/	-4	/	/	3.4
21	Cc1nc(C(=O)NC2CCCCC2)sc1C1(C)CC(c2cccc([N+](=O)[O-])c2)=NO1 (centres undefined)	48	0.72	0.2	5	11	3.1	12	i	-37	4.8
22	O=C(NCc1ccco1)C1CCC(N2C(=O)C3C4CCC(C4)C3C2=O)CC1 (centres undefined)	-10	0.69	-0.2	21	14	0.4	-13	i	-0.1	3.5
23	O=C(CNC(=O)c1cccnc1)N=Nc1c(O)[nH]c2c(Br)cc(Br)cc12	11	/	1.1	6	6	7.3	-1	i	0.2	/
24	Cc1ccc(-c2nnc(N3CC(C)OC(C)C3)c3ccccc23)cc1 (centres undefined)	33	0.66	-0.6	4	-11	-3.8	6	i	-1.7	1.5
25	NC(=O)CC(NC(=O)c1ccccc1)c1ccc(NCc2ccccc2)c([N+](=O)[O-])c1 (centres undefined)	-14	0.67	-0.5	/	/	/	0	/	/	4.6

MLL AF4-AF9 inh, what is marked active above.
No.	SMILES	A1 inh	rRNA inh HTS	rRNA inh HTS OD600	rRNA inh HTS RFP	MLL AF4-AF9 inh	UCH37 inh
4	O=[N+]([O-])c1ccc(N2CCN(C(=S)NCc3ccc(Cl)cc3)CC2)cc1	0.1	-17	-10	1.7	34*	7.5

Remaining list, next part
cpd	Structure	T cruzi inh	Ecoli growth	A1 inh	rRNA inh HTS	rRNA inh HTS OD600	rRNA inh HTS RFP	Beta apoptosis	FGF22 binding	MLL AF4-AF9 inh	UCH37 inh
26	CC(C)CC1NC(=O)N(CC(=O)Nc2ccc3c(c2)CCC3)C1=O (centres undefined)	13	0.65	-0.5	-8	-19	-0.7	-3	/	-0.5	0.1
27	O=C(CCS(=O)(=O)c1ccc(Br)s1)NC1CCCC1	-2	0.68	0.8	/	/	/	-7	/	/	1.3
28	COC(=O)[C@@]1(C)CC[C@]2(C)CC[C@@]3(C)C(=CC(=O)C4[C@@]5(C)CC[C@H](O)C(C)(C)[C@@H]5CC[C@]43C)[C@H]2C1 (some centres undefined)	-11	/	?	/	/	/	0	/	/	-0.1
29	Cc1ccc([N+](=O)[O-])cc1N=Nc1c(C)[nH]n(C(N)=S)c1=O	-18	0.69	0.0	-8	-21	-5.6	1	i	-1.2	14
30	Cc1cccc(C)c1Nc1nnc(SCC(=O)NC2CCS(=O)(=O)C2)s1 (centres undefined)	-23	0.72	-0.7	/	/	/	0	/	/	6.4
31	Cc1ccsc1C1C2=C(CC(C)(C)CC2=O)Nc2ncnn21 (centres undefined)	-4	0.7	0.6	4	0	1.9	/	i	-1.0	4.0
32	CCCS(=O)(=O)c1nc(S(=O)(=O)c2ccc(C)cc2)c(NCCCN2CCCC2=O)s1	-1	0.71	0.1	5	1	1.1	-8	i	-2.2	0.1
33	CCN(CC)C(=O)Cn1cc(S(=O)(=O)CC(=O)NCc2ccccc2)c2ccccc21	0	0.72	-1.0	2	-4	-1.8	/	i	-2.5	5.7
34	CCc1ccccc1NC(=S)N(CCOC)C(C)c1ccco1 (centres undefined)	-4	0.69	0.6	-2	1	-8.9	-1	i	-2.4	4.2
35	Cc1cccc(C)c1NC(=O)CSc1nnc(-c2ccco2)n1N	-8	0.72	0.2	/	/	/	-9	/	/	4.4
36	Cc1ccc(S(=O)(=O)NN2C(=O)c3ccccc3NC2c2ccccc2)cc1 (centres undefined)	8	0.67	1.1	-17	5	4.8	/	/	-5.8	-218
37	O=C(CSc1ccc2nnc(-c3ccc(F)cc3)n2n1)NCC1CCCO1 (centres undefined)	-47	0.71	0.5	/	/	/	-1	/	/	-40
38	COC(CN(C(=O)CCl)C(C(=O)NC1CCCCC1)c1ccc(C)cc1)OC (centres undefined)	-14	0.69	0.2	/	/	/	7	/	/	1.6
39	COc1ccc2c(c1)OC(=O)CC2c1cc(OC)c(OC)c(OC)c1 (centres undefined)	/	0.68	/	18	8	3.1	/	i	-2.5	-0.6
40	Cc1nc2ccc(NC(=O)Cc3c(F)cccc3Cl)cc2s1	-6	0.68	-0.4	2	-1	-3.6	4	i	-64	0.6
41	CCc1nc(N(CC)CC)c2oc3ccccc3c2n1	7	0.64	-0.5	/	/	/	-4	/	/	0.0
42	CCc1ccc(CCC(=O)Nc2ccc(Cl)cc2)o1	0	0.61	-0.1	3	-11	-1.0	-1	i	6.1	0.7
43	CCN1C(=C(C#N)C#N)C=Cc2ccccc21	-2	0.63	-0.3	3	1	-2.5	6	i	-0.5	0.3
44	CCOc1ccc(S(=O)(=O)Nc2ccc(S(=O)(=O)N3CCCC3)cc2)cc1	23	0.71	?	-27*	-15*	10*	0	/	/	4.5
45	CCCCn1c(-c2ccccc2)cnc1SCC(=O)NCCc1ccc(OC)c(OC)c1	38	0.7	0.1	/	/	/	-17	/	/	2.1
46	CCCc1nnc(NC(=O)CCN2C(=O)c3ccccc3C2=O)s1	0	0.75	0.3	/	/	/	-3	/	/	3.7
47	CC(C)N(C)C1CCN(S(=O)(=O)c2ccc(-c3ccc(=O)[nH]n3)s2)CC1	1	0.67	0.3	18	17	0.8	-6	i	-1.3	1.8
48	Cc1coc2c1c(C)cc1oc(=O)c(CC(=O)N[C@@H](C)C(=O)O)c(C)c12	-17	0.67	0.0	6	9	0.5	-4	i	-1.4	-286
49	CC(C)OC(=O)c1cccc(C(=O)O)n1	-7	0.71	-0.5	18	5	5.7	2	/	/	-2.2
50	Cn1nnnc1SCCNCc1ccc(Cl)cc1	-5	0.66	-1.3	/	/	/	-5	/	/	-1.0

Given with each value named: entries from further up.
46: CCCc1nnc(NC(=O)CCN2C(=O)c3ccccc3C2=O)s1
  T cruzi inh: 0 | Ecoli growth: 0.75 | A1 inh: 0.3 | rRNA inh HTS: / | rRNA inh HTS OD600: / | rRNA inh HTS RFP: / | Beta apoptosis: -3 | FGF22 binding: / | MLL AF4-AF9 inh: / | UCH37 inh: 3.7

47: CC(C)N(C)C1CCN(S(=O)(=O)c2ccc(-c3ccc(=O)[nH]n3)s2)CC1
  T cruzi inh: 1 | Ecoli growth: 0.67 | A1 inh: 0.3 | rRNA inh HTS: 18 | rRNA inh HTS OD600: 17 | rRNA inh HTS RFP: 0.8 | Beta apoptosis: -6 | FGF22 binding: i | MLL AF4-AF9 inh: -1.3 | UCH37 inh: 1.8

An excerpt; rates above refer to the full screens.
